Source: PubChem BioAssay
VACV Venus inh: inhibitors of vaccinia virus (Venus reporter) | actives 0.46% (n = 330,000) | Potency, µM (titrated, usually from 36.5 µM), for the others: at the top dose activity change, negative = inhibition, actives largely listed as inhibitors | AID 720580 | Vaccinia virus Venus reporter expression, fluorescence; active means well fitted inhibition curve with a large enough effect; inconclusive means small, poorly fitted or top-dose-only effect; inactive means no such curve, though single readings can be large or run the other way; tested in A549 cells; also: nearly all actives have a fitted effect of over 30% in size; inactives centre near -10
Vaccinia mCherry: inhibitors of vaccinia virus infection (mCherry reporter signal). Vaccinia virus mCherry reporter infection, fluorescence; about a quarter of the inactives have no number. Potency, µM (doses to about 36.5 µM), without a hit: at the highest dose activity change, negative = inhibition, actives largely listed as inhibitors. actives 0.63% (n = 310,000); active = well fitted inhibition curve with a large enough effect; inconclusive = small, poorly fitted or top-dose-only effect; inactive = no such curve, though single readings can be large or run the other way; tested in A549 cells; also: nearly all actives have a fitted effect of over 35% in size; inactives centre near -10
The depositor's hits bear a star; & = joins results of further samples; [ ] = another dose, or the depositor's remark. % is scaled to controls: 0 for no effect and ±100 for the full control effect; potency is read from the fitted curve at half-maximal effect.

Screening COc1ccc(-n2cc(C(=O)OCc3ccc(Cl)cc3)c3ccccc3c2=O)cc1 returned VACV Venus inh -16.2% and Vaccinia mCherry -24.0%.
CCOc1ccc(NC(=O)CN(C)C(=O)c2cc(S(=O)(=O)N3CCCCC3)ccc2C)cc1OCC was read as VACV Venus inh -13.6% and Vaccinia mCherry -14.5%.
`CCOC(=O)/C(=C\Nc1ccc(OC(F)(F)F)cc1)Sc1ncc(C(F)(F)F)cc1Cl` gave VACV Venus inh -1.8%.
CCOc1ccc(CN2CCNC(=O)C2CC(=O)NCCc2cnccn2)cc1 (configuration not stated) was read as VACV Venus inh -10.7% and Vaccinia mCherry -0.2%.
COc1cc2c(cc1OC)C(=O)Cc1ccc3c(c1CN(C)CC2)OCO3 was read as VACV Venus inh 4.3% and Vaccinia mCherry 0.3%.
Screening CC(C)CCNC(=O)c1onc(CSc2ccccn2)c1C(=O)NCCC(C)C returned VACV Venus inh -7.4% and Vaccinia mCherry inactive.
COc1ccc(NS(=O)(=O)c2cc(NS(=O)(=O)c3cccs3)ccc2C)cc1 was read as VACV Venus inh -15.0% and Vaccinia mCherry inactive.
`Oc1cccc(NC(=S)Nc2cccnc2)c1` gave VACV Venus inh -1.0% and Vaccinia mCherry -9.5%.
COc1ccc(-c2cn(-c3ccc(C)cc3C)c(=S)[nH]2)cc1OC was read as VACV Venus inh -11.9% and Vaccinia mCherry -22.3%.
Screening CS(=O)(=O)Nc1ccc(S(=O)(=O)NC2CCCCC2)cc1 returned VACV Venus inh -2.6% and Vaccinia mCherry -23.7%.
Screening Nc1c(-c2nc(-c3ccccc3Cl)no2)nnn1-c1ccccc1C(F)(F)F returned VACV Venus inh 3.3% and Vaccinia mCherry 3.4%.
Screening COc1ccc(NC(=O)CC2C(=O)N(c3cccc(C)c3)C(=O)N2C2CCCCC2)cc1 (configuration not stated) returned VACV Venus inh -3.7% and Vaccinia mCherry -9.7%.
Screening CCCSc1nc2cc(OC)c(OC)cc2c(=N)n1CCCN1CCOCC1 returned VACV Venus inh inconclusive and Vaccinia mCherry inconclusive.
`C=CCOc1c(Br)cc(CNc2ccc(NC(=O)C(C)C)c(OC)c2)cc1OCC` gave VACV Venus inh -10.1% and Vaccinia mCherry inactive.
For COc1cc(C(=O)OCC(=O)Nc2cccc(S(=O)(=O)N3CCOCC3)c2)ccc1OCC(C)C the results were VACV Venus inh -23.1% and Vaccinia mCherry -8.6%.
CN(CC(=O)Nc1ccccc1Cl)C(=O)COC(=O)/C=C/c1ccccc1 was read as VACV Venus inh -7.9% and Vaccinia mCherry -8.8%.
For CC(C)CC1Nc2ncnc(N3CCOCC3)c2N(Cc2ccccc2)C1=O (configuration not stated) the results were VACV Venus inh -7.4%&-6.6% and Vaccinia mCherry -2.6%&3.1%.
Screening C=CCn1c(=O)c(C(=O)Nc2cccnc2)c(O)c2ccccc21 returned VACV Venus inh -18.1%.
CCCSc1ncc(Cl)c(C(=O)Nc2ccc(CC)cc2)n1 was read as VACV Venus inh -23.4% and Vaccinia mCherry -19.3%.
Screening Cc1ccc(S(=O)(=O)NCC(c2cccnc2)N2CCN(Cc3ccccc3)CC2)cc1 (configuration not stated) returned VACV Venus inh -5.9% and Vaccinia mCherry -20.0%.
Screening CCn1cc(/C=C/C(=O)c2ccc(O)cc2)c(C)n1 returned VACV Venus inh -28.4% and Vaccinia mCherry inconclusive.
For CCN(CC)S(=O)(=O)c1ccc(C(=O)NCc2n[nH]c(=S)n2-c2ccc(Cl)c(Cl)c2)cc1 the results were VACV Venus inh 6.6% and Vaccinia mCherry -13.3%.
CC(=O)N/C(=N/c1nc(C)cc(C)n1)Nc1ccc(NC(C)=O)cc1 was read as VACV Venus inh 0.6% and Vaccinia mCherry -10.4%.
`CCc1ccc(N2CC(C(=O)Nc3ccc(S(=O)(=O)N4CCCCC4)cc3)CC2=O)cc1` (configuration not stated) gave VACV Venus inh inconclusive and Vaccinia mCherry -27.1%.
`CCc1ccccc1N(C)C` gave VACV Venus inh -4.1% and Vaccinia mCherry -7.7%.
For C[C@@H](NCCc1ccc(O)cc1)[C@@H](O)c1ccc(O)cc1 the results were VACV Venus inh -8.2% and Vaccinia mCherry inactive.
`COCCSc1nnc(NC(=O)CSc2ccccc2)s1` gave VACV Venus inh 0.0% and Vaccinia mCherry -8.9%.
For COc1cc(OC)cc(C(=O)NCCSC2CCCCC2)c1 the results were VACV Venus inh -7.6% and Vaccinia mCherry -13.3%.
For CCCNc1c(F)c(F)c2c(C)c3ccccc3nc2c1F the results were VACV Venus inh -11.7%.
For Cc1c(-c2cccc(Cl)c2)nc2ccccc2c1C(=O)N1CCC2(CC1)OCCO2 the results were VACV Venus inh -26.8% and Vaccinia mCherry -29.1%.
`OC[C@@H]1CN(Cc2ccco2)C[C@H](n2cnc3c(N4CCN(c5ccccc5)CC4)ncnc32)O1` gave VACV Venus inh 1.6% and Vaccinia mCherry 8.3%.
`CC(SCc1cn2cc(Cl)ccc2n1)C(=O)O` (configuration not stated) gave VACV Venus inh -6.5% and Vaccinia mCherry inactive[1.46 µM].
Cc1c(NC(=O)c2noc(C(C)C)c2[N+](=O)[O-])c(=O)n(-c2ccccc2)n1C was read as VACV Venus inh 5.1% and Vaccinia mCherry inactive.
Screening COc1cc(OC)c(NC(=O)c2cc(CN3CCOCC3)on2)cc1Cl returned VACV Venus inh -3.7% and Vaccinia mCherry 6.2%.
For O=S1(=O)N[C@@H](Cc2ccccc2)COc2cccc(N3CCN(Cc4ccccc4F)CC3)c21 the results were VACV Venus inh -2.0% and Vaccinia mCherry 3.1%.
`COc1ccccc1C(c1nnnn1C(C)(C)C)N1CCN(Cc2ccccc2)CC1` (configuration not stated) gave VACV Venus inh -4.6% and Vaccinia mCherry -9.3%.
CCOC(=O)[C@]12Cc3c(cc(OC)c(OC)c3OC)[C@H]1N(Cc1ccccc1)C(=O)c1cc(F)c(F)cc12 was read as VACV Venus inh -4.1% and Vaccinia mCherry inactive.
For CCOC1=C2[C@H]([C@H]3C(=O)N(c4ccccc4)C(=O)[C@H]3C1)[C@@H](C(C)C)N(S(=O)(=O)c1ccc(C)cc1)[C@H]2c1ccccc1 the results were VACV Venus inh -2.6% and Vaccinia mCherry 34.6%[activator].
CCCc1nc(NCc2ccccn2)c2nnn(Cc3ccccc3F)c2n1 was read as VACV Venus inh -23.1% and Vaccinia mCherry -9.0%.
CCCC[C@H](CN(N=O)[C@@H](Cc1ccccc1)CN(C)N=O)N(CCc1ccccc1)N=O was read as VACV Venus inh -8.9% and Vaccinia mCherry -21.9%.
Screening COc1cc(NC(=O)CN2C(=O)NC(C)(c3ccc4ccccc4c3)C2=O)c(C)cc1[N+](=O)[O-] (configuration not stated) returned VACV Venus inh inconclusive and Vaccinia mCherry -17.1%.
CC1(NCc2ccc(Cl)cc2)COP(=O)(NCc2ccccc2)OC1 (configuration not stated) was read as VACV Venus inh -19.1% and Vaccinia mCherry inactive.
Screening Cc1ccc(Nc2ncnc3c2cnn3-c2ccccc2)c(C)c1 returned VACV Venus inh 3.0% and Vaccinia mCherry -10.4%.
For NC(=O)c1ccc2c(c1)S(=O)(=O)c1ccccc1C2=O the results were VACV Venus inh -15.4% and Vaccinia mCherry -16.7%.
O=C1CS(=O)(=O)C2(C(=O)N(Cc3ccccc3)c3ccccc32)N1c1ccccc1 (configuration not stated) was read as VACV Venus inh -7.8% and Vaccinia mCherry -7.4%.
`CC1OC2(OC1C)C(=O)Nc1ccccc12` (configuration not stated) gave VACV Venus inh -2.3% and Vaccinia mCherry inactive.
`CS(=O)(=O)N(CC(=O)N1CCN(c2ccccc2F)CC1)c1ccc2c(c1)OCCO2` gave VACV Venus inh -8.3% and Vaccinia mCherry -18.5%.
Screening CC1(C)CC(CC(=O)O)CC(C)(C)N1 returned VACV Venus inh -9.7% and Vaccinia mCherry 1.9%.
Screening CCOc1cc(C(=O)NCCc2csc3nc(-c4ccc(C)cc4)nn23)cc(OCC)c1OCC returned VACV Venus inh -15.4% and Vaccinia mCherry -20.8%.
CCOc1ccc(OCC)c(S(=O)(=O)NCCOC23CC4CC(CC(C4)C2)C3)c1 was read as VACV Venus inh inconclusive and Vaccinia mCherry -14.4%.
`Cc1ccsc1C(=O)Nc1ccc(S(=O)(=O)N2CCOCC2)cc1` gave VACV Venus inh -8.1% and Vaccinia mCherry -12.4%.
`COc1ccc(CNC(=O)[C@@H](C)NC(=O)C2CCN(C(=O)[C@@H](N)CCSC)CC2)cc1` gave VACV Venus inh 0.0% and Vaccinia mCherry -8.1%.
Cc1nnc(SCC(=O)NCC2CCCO2)n1Cc1ccccc1 (configuration not stated) was read as VACV Venus inh -18.8% and Vaccinia mCherry -14.2%.
COc1ccccc1CNC(=O)Nc1nnc([C@H]2C[C@H](O)[C@@H](CO)O2)s1 was read as VACV Venus inh -6.3% and Vaccinia mCherry 1.9%.
`COc1ccc(/C=N/NC(=O)c2cccnc2)cc1COc1ccc(NC(C)=O)cc1` gave VACV Venus inh -5.0% and Vaccinia mCherry -8.8%.
Screening CCC(=O)N1c2ccccc2NC2=C(C(=O)CCC2)C1c1ccco1 (configuration not stated) returned VACV Venus inh -4.7% and Vaccinia mCherry inconclusive.
`CCCCCC(=O)NC(=S)Nc1ccc(N2CCOCC2)cc1` gave VACV Venus inh -12.9% and Vaccinia mCherry -19.4%.
Screening CN(C)C(=O)/C(=C\c1cccc(Oc2ccccc2)c1)NC(=O)c1ccccc1 returned VACV Venus inh -27.6% and Vaccinia mCherry inconclusive.
Screening O=C(COC(=O)C1CCN(S(=O)(=O)c2ccc3c(c2)OCCO3)CC1)Nc1cccc2ccccc12 returned VACV Venus inh -7.1% and Vaccinia mCherry -5.7%.
`CC(C)C1Nc2ccc(S(N)(=O)=O)cc2C2C=CCC21` (configuration not stated) gave VACV Venus inh -2.7% and Vaccinia mCherry -12.8%.
For COc1ccc(C(c2sc3nc(C)nn3c2O)N2CCC(O)CC2)cc1OC (configuration not stated) the results were VACV Venus inh 4.8% and Vaccinia mCherry 0.9%.
Screening CCN(CC)S(=O)(=O)c1cc(NC(=O)CSc2nccn2C)ccc1C returned VACV Venus inh 1.9% and Vaccinia mCherry 10.5%.
For Cc1cccc(Nc2nc(N)nc(CCl)n2)c1 the results were VACV Venus inh inconclusive and Vaccinia mCherry inconclusive.
`CCN1C(=O)[C@H]2[C@@H](c3ccc(-c4ccc(F)cc4)cc3)N[C@@](C)(C(=O)OC)[C@H]2C1=O` gave VACV Venus inh -24.2% and Vaccinia mCherry -19.2%.
For OC[C@@H]1CN(Cc2ccncc2)C[C@H](n2cnc3c(N4CCN(c5ccccc5)CC4)ncnc32)O1 the results were VACV Venus inh inconclusive and Vaccinia mCherry 11.2µM*.
CC(C)Sc1nc2sc3c(c2c2nnc(SCC(=O)NCc4ccco4)n12)CCCC3 was read as VACV Venus inh -9.2% and Vaccinia mCherry -8.9%.
Fc1cccc(Nc2ncnc3sc4c(c23)CCC4)c1 was read as VACV Venus inh -5.3% and Vaccinia mCherry -8.0%.
For CCOc1cc(CNCc2cccs2)cc(Br)c1OC the results were VACV Venus inh -24.7%.
Screening Cc1ccc(Cn2nnc3c(=O)n(CC(=O)N4CCCc5ccccc54)cnc32)cc1 returned VACV Venus inh 0.5% and Vaccinia mCherry -8.8%.
For CC(C)(O)c1cn(-c2nonc2N)nn1 the results were VACV Venus inh -13.4%.
For CC1CCCN(C(=O)COC(=O)Cc2c(F)cccc2Cl)C1 (configuration not stated) the results were VACV Venus inh -0.9% and Vaccinia mCherry -7.2%.
CCc1nnc(N/N=C/c2cc(Br)c(O)cc2O)n1N was read as VACV Venus inh inconclusive and Vaccinia mCherry inconclusive.
For CN(C)c1ccc(/C=C(\C#N)C(=O)OCC(=O)N(C)C2CCS(=O)(=O)C2)cc1 (configuration not stated) the results were VACV Venus inh 1.7% and Vaccinia mCherry -12.9%.
For N/C(Cc1nc2ccccc2s1)=N\O the results were VACV Venus inh 8.8% and Vaccinia mCherry -24.3%.
For CCOC(=O)Cc1cc(-c2ccccc2)nc2ccc3ccccc3c12 the results were VACV Venus inh -0.3% and Vaccinia mCherry -15.2%.

In the list so far, these have an aryl thioether with sulfur outside any ring.
`CCOC(=O)/C(=C\Nc1ccc(OC(F)(F)F)cc1)Sc1ncc(C(F)(F)F)cc1Cl` gave VACV Venus inh -1.8%.
Screening CC(C)CCNC(=O)c1onc(CSc2ccccn2)c1C(=O)NCCC(C)C returned VACV Venus inh -7.4% and Vaccinia mCherry inactive.
Screening CCCSc1nc2cc(OC)c(OC)cc2c(=N)n1CCCN1CCOCC1 returned VACV Venus inh inconclusive and Vaccinia mCherry inconclusive.
CCCSc1ncc(Cl)c(C(=O)Nc2ccc(CC)cc2)n1 was read as VACV Venus inh -23.4% and Vaccinia mCherry -19.3%.
`COCCSc1nnc(NC(=O)CSc2ccccc2)s1` gave VACV Venus inh 0.0% and Vaccinia mCherry -8.9%.
Cc1nnc(SCC(=O)NCC2CCCO2)n1Cc1ccccc1 (configuration not stated) was read as VACV Venus inh -18.8% and Vaccinia mCherry -14.2%.
Screening CCN(CC)S(=O)(=O)c1cc(NC(=O)CSc2nccn2C)ccc1C returned VACV Venus inh 1.9% and Vaccinia mCherry 10.5%.
CC(C)Sc1nc2sc3c(c2c2nnc(SCC(=O)NCc4ccco4)n12)CCCC3 was read as VACV Venus inh -9.2% and Vaccinia mCherry -8.9%.
